Screens from PubChem BioAssay.
2A StopGo: FMDV 2A StopGo reporter, luciferase signal; human cells with a luciferase reporter of 2A StopGo recoding; control for the full effect not named in the record; Potency, µM (doses to about 57.9 µM), for inactives: at the highest dose signal change, negative = less light; 1.2% of 410,000 active; AID 1159524; active = well fitted falling curve with a large enough effect; inconclusive = small, poorly fitted or top-dose-only effect; inactive = no such curve, though single readings can be large or run the other way; tested in HEK293T cells; further: on the % scale 0 is the no-effect control and ±100 the full control effect; nearly all actives have a fitted effect of over 45% in size; luciferase light after 4 h
SARS PLpro yeast: inhibitors of SARS-CoV papain-like protease in yeast. S. cerevisiae expressing SARS-CoV PLpro, growth rescue; control for the full effect not named in the record. Potency, µM (highest dose often 32.9 µM), for the others: at the highest dose activity, positive = growth rescue. 0.19% of 330,000 active; active means well fitted rising curve with a large enough effect; inconclusive means small, poorly fitted or top-dose-only effect; inactive means no such curve, though single readings can be large or run the other way; further: 0% is about no effect; nearly all actives have a fitted effect of over 55% in size; growth read by luminescence after 48 h
RE007 growth inh: less growth of the S. pombe RE007 Vpr strain; 0.21% of 360,000 active; Potency, µM (top dose mostly 92.2 µM), for the others: top-dose activity change, negative = less growth; S. pombe RE007 Vpr strain, BacTiter-Glo ATP luminescence, 24 h; control for the full effect not named in the record; active = well fitted falling curve with a large enough effect; inconclusive = small, poorly fitted or top-dose-only effect; inactive = no such curve, though single readings can be large or run the other way;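 further: on the % scale 0 is the no-effect control and ±100 the full control effect; nearly all actives have a fitted effect of over 50% in size; the assay follows cell death caused by Vpr and the record does not say whether a fall means rescue or toxicity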
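Fission yeast strain RE007, carrying one chromosomally integrated HIV-1 vpr copy, was seeded at OD 0.01 in PMG+AL medium with 23 nL pinned compound. After 24 h at 30 °C and 99% humidity, viability was read by BacTiter-Glo luminescence.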
The depositor's hits bear a star; ? = inconclusive; [ ] = another dose, or the depositor's remark. Potency means the concentration at half of the fitted maximal effect.

Below each SMILES – 2A StopGo | SARS PLpro yeast | RE007 growth inh
- COc1ccc(-c2cc(C(=O)NC(C)c3ccccn3)c3ccccc3n2)cc1OC (stereo not drawn)
→ -17% | 2% | -3%
- NNC(=O)CCc1ccc(S(=O)(=O)N2CCOCC2)cc1
→ -7% | 1% | -1%
- CCCCn1nc(C(=O)N(CCOC)c2c(N)n(CCCC)c(=O)[nH]c2=O)c2ccccc2c1=O
→ -17% | -3% | -1%
- NS(=O)(=O)c1ccc(NC(=O)c2ccc(Cl)c(S(=O)(=O)NCc3ccco3)c2)cc1
→ 1% | 3% | -5%
- C[C@@H]1COC(=O)[C@@H](CC(=O)OC(C)(C)C)C/C=C\C[C@H](CC(=O)N(CCO)Cc2ccccc2)C(=O)N1
→ -5% | 9% | -19%
- COc1cccc(-n2cn[nH]c2=S)c1
→ 3% | 1% | 10%
- Cc1ccc(/C=C/C(=O)NC2CCS(=O)(=O)C2)cc1 (stereo not drawn)
→ 21% | 1% | -8%
- CCOc1ccccc1NC(=O)COC(=O)c1cnc(C)cn1
→ -5% | 5% | -8%
- CCN(CC)S(=O)(=O)c1ccc(Cl)c(NC(=O)COC(=O)c2nc3nc(C)cc(C)n3n2)c1
→ 5% | 3% | 0%
- Oc1ccc2c3c1OC1c4[nH]c5ccccc5c4C[C@@]4(O)C(C2)N(CC2CC2)CC[C@]314 (stereo partly drawn)
→ 0% | 3% | 1%
- CCOC(=O)c1[nH]c2ccc(OC)cc2c1NC(=S)N1CCN(c2ccccn2)CC1
→ -7% | -2% | 10%
- CC(C)NC(=O)N(C)C[C@H]1Oc2c(NS(=O)(=O)c3cn(C)cn3)cccc2C(=O)N([C@H](C)CO)C[C@@H]1C
→ 16% | 4% | 3%
- CC(C)n1nnnc1SCC(=O)c1c(N)n(C2CC2)c(=O)[nH]c1=O
→ -19% | 2% | -5%
- COCCSc1nc(N)c(NC(=O)c2ccc(OC)cc2)c(=O)[nH]1
→ -8% | 0% | 24%
- CCCCn1c(C)nc2cc(S(=O)(=O)N3CCOCC3)ccc21
→ 0% | -3% | -15%
- CCCCN(C(=O)c1cccc(S(=O)(=O)N2CCOCC2)c1)c1c(N)n(CCC)c(=O)[nH]c1=O
→ -20% | 8% | 18%
- Cc1noc(C)c1COc1cccc(C(=O)N(C)Cc2nc3ccccc3c(=O)[nH]2)c1
→ ? | -3% | -8%
- COC(=O)[C@]1(Cc2ccccc2)N[C@H](c2ccc(-c3ccc(Cl)c(Cl)c3)cc2)[C@@H]2C(=O)N(C)C(=O)[C@@H]21
→ ? | 0% | -1%
- Cc1cccc(C(=O)N[C@H](C(=O)Nc2nc3ccccc3[nH]2)C(C)C)c1
→ -25% | 0% | -6%
- COCCCNC(=O)Cn1c(=O)n(Cc2ccccc2Cl)c(=O)c2cc(OC)c(OC)cc21
→ -6% | 4% | -1%
- CCCN(CC(=O)Nc1ccccc1OC)C(=O)CCC(=O)c1ccc(Cl)s1
→ -17% | -3% | -5%
- C[C@H](CO)N1C[C@H](C)[C@@H](CN(C)C(=O)NC2CCCCC2)Oc2ccc(NS(=O)(=O)c3cccs3)cc2C1=O
→ -18% | 5% | -2%
- CC(C)(C)OC(=O)C[C@H]1C/C=C\C[C@@H](CC(=O)N(CCO)Cc2ccccc2)C(=O)NCCOC1=O
→ -4% | 9% | -6%
- CN1CCCN(C(=O)CNC(=O)c2ccccc2Br)CC1
→ -16% | 2% | 0%
- Cc1ccc2c(c1)C1CN(C)CCC1N2C(=O)c1cn(-c2ccccc2)nc1-c1ccccc1 (stereo not drawn)
→ -23% | 1% | 20%
- CNS(=O)(=O)c1ccc(C(=O)NCC(=O)NCC2COc3ccccc3O2)cc1 (stereo not drawn)
→ -9% | 12% | 11%
- CC12CN(Cc3ccccc3)CC(C)(CN(Cc3ccccc3)C1)C2=O
→ -8% | 1% | -18%
- O=C(CN1CCN(c2ccc(O)cc2)CC1)Nc1ccccc1C(=O)NCCc1ccccc1
→ -20% | -2% | -8%
- C[C@@]12CCC3[C@@](CCC4[C@@]3(C)CCC[C@@]4(C)C(=O)Nc3ccc(Cl)cc3)(CC1=O)C2 (stereo partly drawn)
→ ? | -18% | 26%
- C[C@H](CO)N1C[C@H](C)[C@@H](CN(C)C(=O)NC2CCCCC2)Oc2ccc(NS(=O)(=O)c3cn(C)cn3)cc2C1=O
→ -22% | 5% | 3%
- O=C(NCc1ccccc1)c1csc2c1CCCC2
→ 17% | -7% | -21%
- CCN(CC(=O)Nc1c(F)cccc1F)C(=O)Cc1ccc2c(c1)OCCO2
→ 10% | -2% | -8%
- O=C(Cn1cnc([N+](=O)[O-])c1)c1ccc(Cl)cc1
→ -26% | -1% | -7%
- O=C(Nc1cccnc1)c1cc(-c2ccc(F)cc2)on1
→ 16% | -1% | -9%
- CN1C(=O)CSc2ccc(NC(=O)NCc3ccc(F)cc3)cc21
→ 18% | -2% | 0%
- O=C(CNC(=O)c1ccco1)NCC(c1ccco1)N1CCCCC1 (stereo not drawn)
→ -2% | 3% | -8%
- COc1cc(OC)c2c(-c3cccc(-c4ccc(F)c(Cl)c4)c3)cc(=O)oc2c1
→ ? | 4% | 7%
- Cn1cccc1/C=C1\C(=O)NC(=O)N(Cc2ccco2)C1=O
→ 0% | 2% | -5%
- COC(=O)C1=C(c2ccc3ccccc3c2)C[C@@H]2CC[C@H]1N2C(=O)NCCCOC(C)C
→ -22% | -19% | -16%
- COc1ccc2[nH]c3c(c2c1)CCN1C(=O)C(CC(=O)NC(C)(C)C)C[C@H](C(=O)N2CCCCC2)[C@@]31CCc1ccccc1 (stereo partly drawn)
→ -9% | 13% | 8%
- COc1ccc(S(=O)(=O)N(C)C[C@@H]2Oc3ccc(NC(=O)Nc4c(C)noc4C)cc3C(=O)N([C@H](C)CO)C[C@@H]2C)cc1
→ -9% | 3% | 15%
- CC(=O)NC12CC3CC(C1)CC(C(=O)N1CCN(S(=O)(=O)c4cccs4)CC1)(C3)C2
→ -17% | -2% | 23%
- O=c1oc(C2(O)CCCCC2)cc2ccc(Br)cc12
→ -7% | 6% | -5%
- COc1ccc([C@H]2CC(=O)C=C(c3ccc(C)c([N+](=O)[O-])c3)C2)cc1
→ 19% | -6% | 7%
- CCN(CC(=O)Nc1c(F)cccc1F)C(=O)Cc1c(C)nc2ccccc2c1C
→ -15% | -11% | -5%
- COc1ccc(NC(=O)CC2SC(N3CCOCC3)=NC2=O)c(OC)c1 (stereo not drawn)
→ -20% | 13% | 1%
- O=C(NCC(=O)N1CCN(C(=O)c2ccco2)CC1)c1cccc(Cl)c1
→ -17% | -2% | 10%
- CC(=O)C[C@@H](O)CC(=O)[C@@H]1OC(=O)CCCCC/C=C/Cc2ccccc21
→ 8% | 10% | 17%
- Cc1ccc(/C=C/C(=O)Nc2ccc(S(=O)(=O)Nc3ncccn3)cc2)cc1
→ 26% | 0% | -1%
- Cc1cc(C)nc(NC(=O)Nc2ccc3c(c2)OCO3)c1
→ 46%[activator] | 2% | -13%
- COC(=O)C1=C(c2ccc(F)cc2OCc2ccccc2)C[C@@H]2CC[C@H]1N2C(=O)NCc1cccc(OC)c1
→ -23% | 4% | 13%
- O=C1c2ccccc2C(=O)N1CN(C(=O)c1ccccc1)c1ccc(O)cc1
→ -10% | 1% | 31%
- O=C(COc1ccccc1)NCC(=O)N1CCCCCC1
→ -11% | 2% | -8%
- CC(C)NC(=O)N(C)C[C@H]1Oc2ccc(NC(=O)NC3CCCCC3)cc2C(=O)N([C@H](C)CO)C[C@@H]1C
→ -14% | 5% | 6%
- CC(Oc1ccccc1F)C(=O)NNC(=O)c1cccc(S(=O)(=O)N2CCN(C)CC2)c1 (stereo not drawn)
→ -16% | 4% | 13%
- O=C(N/N=C/c1ccccc1C(=O)O)c1cccc(S(=O)(=O)N2CCOCC2)c1
→ -15% | -3% | 1%
- C[C@H](CO)N1C[C@H](C)[C@@H](CN(C)C)Oc2c(NS(=O)(=O)c3ccc(F)cc3)cccc2C1=O
→ 3% | -2% | 0%
- CCN(C(=O)CSc1nc(C)nc2sc(C)c(C)c12)c1ccc(F)cc1
→ ? | -4% | -8%
- O=C(NC(=S)Nc1ccc(Cl)cn1)C12CC3CC(CC(C3)C1)C2
→ 41%[activator] | -7% | -23%
- CCOC(=O)C1=C(COC(=O)c2cccnc2SC)NC(=O)NC1C (stereo not drawn)
→ -23% | -2% | 6%

(further entries)
Below each SMILES – 2A StopGo | SARS PLpro yeast | RE007 growth inh
- CC(=O)Nc1ccc(-c2csc(NC(=O)Nc3ccccc3)n2)cc1
→ 16µM* | -1% | -3%
- Cc1c(C(=O)N2CCN(C3CCS(=O)(=O)C3)CC2)oc2c(F)cccc12 (stereo not drawn)
→ -12% | -8%[6.58 µM] | 4%
- COC(=O)[C@]1(Cc2ccccc2)N[C@H](CN(C)S(=O)(=O)c2ccc(OC)cc2)[C@@H]2C(=O)N(C)C(=O)[C@@H]21
→ 0% | 0% | 4%
- Cc1ccc(N2C(=O)N3[C@H](c4cccc(C)c4)[C@@H]4C(=O)N(Cc5ccccc5)C(=O)[C@@H]4[C@]3(C)C2=O)cc1
→ 3% | 6% | 10%
- CCc1ccc(N=Nc2ccc(O)c3[nH]cnc23)cc1
→ 68%[activator] | -4% | -4%
- CC1CCCC(C)N1C(=O)COC(=O)COc1ccccc1C#N (stereo not drawn)
→ 6% | 14% | -17%
- COc1cc(/C=C\C(=O)OCn2nnc3ccccc3c2=O)cc(OC)c1OC
→ 12% | -1% | -9%
- CCCCN1C(=N)N([C@@H](CN2CCC[C@H]2CN2C(N)=NC[C@@H]2Cc2ccccc2)C(C)C)C[C@H]1Cc1ccccc1
→ 8% | -1% | -9%
- O=C1CSC(c2ccccc2[N+](=O)[O-])N1c1ccc(O)cc1 (stereo not drawn)
→ -3% | 10% | -4%
- CCOc1ccc(C(=O)NNC(=O)CNC(=O)c2ccc(C)s2)cc1OC
→ -5% | 1% | 2%
- O=C(CSc1nc2ncc(Cl)cc2[nH]1)NCCc1ccc(F)cc1
→ -27% | -1% | 0%
- CCSc1nnc(NC(=O)[C@H](C)N2C(=O)C3CC=CCC3C2=O)s1 (stereo partly drawn)
→ -4% | 0% | 10%
- COc1cc(C(=O)NNC(=O)COc2cccc(F)c2)ccc1OCC(=O)N1CCOCC1
→ -23% | -20% | 1%
- O=C(C[C@H]1C/C=C\CC[C@@H](Cc2ccc(F)cc2)C(=O)O[C@H](c2ccccc2)CNC1=O)N[C@H](CO)Cc1ccccc1
→ ? | 5% | -5%
- Cc1nn(-c2ccccc2)c(C)c1C(=O)OCC(N)=O
→ 10% | 2% | -3%
- Cc1ccc(-c2csc(NCCn3c(C)nc4cc(C(F)(F)F)ccc43)n2)cc1
→ -3% | -1% | 0%
- O=C(Nc1cc(S(=O)(=O)N2CCCCC2)ccc1Cl)c1ccncc1
→ 4% | 2% | 16%
- CC(=O)Nc1ccc(C2=CC(=O)CC(C)(C)C2)cc1
→ 13% | -12% | 7%
- CCOC(=O)[C@H]1[C@H]2COc3ccc(Cl)cc3[C@@H]2N2C(=O)CN(Cc3ccc(C)cc3)C(=O)[C@@]12C
→ -26% | -6% | -1%
- C/C(=N\NC(=O)c1cccc(S(=O)(=O)N2CCCC2)c1)c1ccncc1
→ -2% | 1% | -9%
- COc1cccc(CNC(=O)c2nnn(CC(=O)Nc3ccc4c(c3)OCO4)c2N)c1
→ -15% | 0% | -5%
- CNc1snc(C)c1C(=O)OCC(=O)c1cc(F)ccc1OC
→ ? | 2% | -5%
- Cn1c(N)c(Sc2ccc(F)cc2)c(=O)n(C)c1=O
→ -5% | 1% | -1%
- CCOC(=O)c1csc(NC(=O)c2ccc(C#N)cc2)n1
→ ? | -1% | -7%
- Cc1cccc(C(=O)OCC(=O)N(C)CC(=O)Nc2ccc(Cl)c(C(F)(F)F)c2)c1
→ -29% | -4% | 19%
- CCN(C[C@H]1N[C@@](CC)(C(=O)OC)[C@H]2C(=O)N(C)C(=O)[C@@H]12)C(=O)COc1ccccc1
→ -10% | -3% | 5%
- COc1ccccc1/C=N/NC(=O)c1ccc(N(C)S(=O)(=O)c2ccccc2)cc1
→ -13% | 0% | 24%
- Cn1nnnc1SCC(=O)c1c(N)n(C2CC2)c(=O)[nH]c1=O
→ -12% | 4% | -9%
- C=CC[C@@H](Cc1ccc(F)cc1)C(=O)OC[C@@H]1CCCN1C(=O)[C@@H](CC=C)CC(=O)NCCO
→ -4% | 2% | 6%
- Nn1c(Cc2ccccc2F)n[nH]c1=S
→ 7% | 3% | -5%
- O=C(O)c1ccc(-c2nc(-c3ccc(Cl)cc3)cs2)cc1
→ -1% | -4% | -6%
- Cc1cc(C)c2c(N)c(C(=O)c3ccc(Cl)c(Cl)c3)sc2n1
→ 27% | -3% | -7%

The list is partial; rates above refer to the full screens.
